B2AR ag: beta2AR agonists driving receptor internalization, primary screen, cell-based, FAP fluorogen, flow cytometry | Am2.2-beta2AR cells; reference of the scale not given here | response, % (no concentration beside the values) | hit rate 0.43% among 340,000;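 active = response above a set limit, near 3 SD of response in nonfluorescent compounds, cut at about 42% in these data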;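 also: stock transfer was 100 nL into about 11 µL; a reference agonist was the positive control; negative values mostly stem from fluorescent compounds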
Target sequence (P07550 whole entry, looked up): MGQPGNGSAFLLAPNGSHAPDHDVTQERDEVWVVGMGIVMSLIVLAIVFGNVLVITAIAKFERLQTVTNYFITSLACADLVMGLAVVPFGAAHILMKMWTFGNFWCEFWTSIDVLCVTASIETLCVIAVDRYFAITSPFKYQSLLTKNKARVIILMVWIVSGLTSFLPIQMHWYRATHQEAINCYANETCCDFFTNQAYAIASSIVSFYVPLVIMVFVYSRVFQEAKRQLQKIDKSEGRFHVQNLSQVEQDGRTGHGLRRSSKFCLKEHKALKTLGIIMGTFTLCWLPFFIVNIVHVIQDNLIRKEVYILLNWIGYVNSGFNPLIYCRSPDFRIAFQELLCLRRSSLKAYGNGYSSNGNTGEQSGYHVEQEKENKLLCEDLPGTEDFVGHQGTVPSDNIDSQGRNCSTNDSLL
LANA-H2B inh: blockers of LANA interaction with H2A/H2B – biochemical, FP readout, HTS, primary screen; AID 2629, 2010; Protein LANA1 (Human herpesvirus 8 type P (isolate GK18)), Q9QR71; hit rate 0.6% among 320,000; cell-free LANA-H2A/H2B peptide, fluorescence polarization; inhibition, % (no concentration beside the values); in the data active = inhibition mostly above about 10%, no sharp cut-off; inactive = mostly below about 6.7%;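 also: stock transfer was 7.5 nL into about 10 µL; 0% = median of vehicle wells and 100% = median of positive control wells; one replicate is shown; the record names a cut of 25% in any replicate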
Vif A3G: inhibitors of Vif binding to APOBEC3G peptide, primary screen, biochemical, TR-FRET, GST-Vif 1-94, biotin-A3G peptide, dose response retest (AID 1117319); TR-FRET GST-Vif / biotin-A3G peptide binding; higher % means a stronger effect; test concentration not given here; strong numbers were not always called active; Virion infectivity factor (Human immunodeficiency virus type 1 group M subtype B (isolate …; inhibition, %; hits with a dose series show IC50 in µM; hit rate 0.57% among 260,000;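 active = above the screen mean plus three standard deviations and confirmed in dose response; inconclusive = results disagree or hit not tested in dose response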;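 also: Vif residues 1-94 fused to GST binding biotinylated APOBEC3G peptide 110-148; 0% = full assay without inhibitor and 100% = GST in place of GST-Vif; retest series ran down from 100 µM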
A1 inh: caspase 3/7 activation in MEF A1-2A-BIM cells, primary screen, A1 inhibitor project, cell-based, luminescence, HTS. caspase activation, % (no concentration beside the values). hit rate 0.066% among 330,000. Caspase-Glo 3/7 luminescence, 3 h; percent of clofoctol response, vehicle zero. AID 2462, 2010;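 active = over half of replicate activation scores above 10%, or exactly half above 10 with the replicate mean above 10; inconclusive = replicate mean below 10 yet half the replicates above 10; inactive = over half of replicates below 10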;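 also: wells of about 30 µL received 50 nL stock; many hits fall short of the cut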
HNF4A DNA FP: change in binding of human HNF4A to DNA, primary screen, biochemical, fluorescence polarization, FITC-DNA; Hepatocyte nuclear factor 4-alpha (Homo sapiens), P41235; 1 h; activity change, % at 10 µM; hit rate 0.3% among 360,000; in the data active = activity change above about 30%, passing the limit was not always enough;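 also: controls were the assay level and a saturating level of protein; the project sought stronger binding though the title names inhibitors; some compounds called inactive have numbers as strong as hits; positive values seem to mean higher polarization but the record does not say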
UCH37 DUB inh: inhibitors of human UCH37 deubiquitinase, primary screen, biochemical, Ub-AMC cleavage, fluorescence; Ubiquitin carboxyl-terminal hydrolase isozyme L5 (Homo sapiens), Q9Y5K5; purified proteasome/UCH37; inhibition, % (no concentration beside the values); hit rate 0.33% among 330,000; AID 588478, 2011;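 active = mean of two replicates above 20%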;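 also: 0% = compound-free wells with enzyme and 100% = wells lacking proteasome; stock transfer was 100 nL into about 20 µL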
Target sequence (Q9Y5K5 whole entry, looked up): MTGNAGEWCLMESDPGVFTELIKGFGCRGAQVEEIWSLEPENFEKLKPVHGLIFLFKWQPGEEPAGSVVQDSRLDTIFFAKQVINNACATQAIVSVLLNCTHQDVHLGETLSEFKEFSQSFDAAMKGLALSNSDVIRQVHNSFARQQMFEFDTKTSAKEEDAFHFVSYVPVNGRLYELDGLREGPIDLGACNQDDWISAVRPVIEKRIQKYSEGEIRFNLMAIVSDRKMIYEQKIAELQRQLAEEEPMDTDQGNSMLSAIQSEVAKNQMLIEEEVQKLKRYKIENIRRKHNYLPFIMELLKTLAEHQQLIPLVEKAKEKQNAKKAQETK
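Test system – human UCH37 enzyme supplied as purified proteasome complex · Incubation – 30 min preincubation with enzyme, 25 min cleavage at room temperature · Detection – AMC fluorescence from Ub-AMC cleavage, excitation 355 nm, emission 460 nm · Benchmarks – no-proteasome wells (full inhibition) and compound-free wells (no inhibition)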
Ecoli growth: E. coli growth inhibition, primary screen, OD600 | Escherichia coli growth, 23 h; active compounds read low | OD600 absorbance (test concentration not listed) | hit rate 0.21% among 330,000;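 active = OD600 absorbance below the run mean of sample wells minus 3.6 SD, in any replicate, cut at about 0.56 in these data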;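 also: stock transfer was 300 nL into about 60 µL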
The depositor's hits bear a star; ? = inconclusive; nt = not tested or not shown; & = joins results of further samples.

Molecule	B2AR ag	LANA-H2B inh	Vif A3G	A1 inh	HNF4A DNA FP	UCH37 DUB inh	Ecoli growth
COc1ccc(CCN2C(=O)CC(NNC(=O)c3ccccc3Br)C2=O)cc1 (stereo unspecified)	2	-11	nt	-0.3	-2.0	1.2	0.68
COc1ccc2[nH]c3c(c2c1)CCN1C(=O)C(CC(=O)NCc2cccc(C(F)(F)F)c2)C[C@H](C(=O)N2CCCCC2)[C@@]31CCc1ccccc1 (stereo partly specified)	3	nt	7%	nt	0.1	4.0	0.73
Cc1cc2oc(=O)cc(Cn3nnc(-c4ccc(Cl)cc4)n3)c2cc1C(C)C	nt	-0.7	18%	-1.0	nt	-0.8	0.71
COC(=O)c1ccc(C2C(C(=O)c3cc4ccccc4o3)=C(O)C(=O)N2c2cc(C)on2)cc1 (stereo unspecified)	5	-4.2	nt	-0.2	8.1	nt	nt
COc1ccc(-c2cc(=O)oc3cc(OCC(=O)NCC4CCC(C(=O)O)CC4)ccc23)cc1 (stereo unspecified)	1	3.4	nt	0.5	0.6	-7.4	0.68
O=C(COC(=O)CNC(=O)C1CCCCC1)Nc1ccc2ccccc2c1	0	1.3	-6%	0.2	0.6	0.7	0.69
COc1ccc(C2=[N+](C)CCn3cccc32)c(OC)c1	2	3.9	nt	0.4	1.2	7.3	0.7
COc1ccc(CN(C)CC(=O)NC2CCCc3ccccc32)cc1OC (stereo unspecified)	12	-3.2	-7%	1.1	0.6	1.1	0.72
O=c1c2ccccc2n2cnnc2n1-c1ccccc1	-4	4.1	6%	1.4	-0.7	-1.0	0.7
CC(=O)N1CCN(C(=O)c2cc3c(s2)CCC(C)C3)CC1 (stereo unspecified)	-6	nt	6%	nt	4.7	0.3	0.67
CC1(C)CC(=O)C2=C(C1)NC(=O)NC2c1ccccc1 (stereo unspecified)	9	0.6	1%	1.3	3.8	-2.8	0.65
Nc1cc(F)ccc1N1CCCCCC1	0	1.6	20%	-0.5	3.3	-0.8	0.67
O=C(COC(=O)c1c2ccccc2cc2ccccc12)NCC(F)(F)F	8	1.1	nt	0.4	0.3	-233	0.67
Cc1ccc(CN2CCc3[nH]c(=S)[nH]c(=O)c3C2)cc1	13	-0.1	nt	1.0	2.6	-5.2	0.69
C[C@H](CO)N1C[C@H](C)[C@@H](CN(C)S(=O)(=O)c2ccc(F)cc2)Oc2c(NS(=O)(=O)c3ccc(F)cc3)cccc2C1=O	2	nt	3%	nt	-2.4	2.7	0.7
O=C(CN(CC1CCCO1)C(=O)CNS(=O)(=O)c1ccc(F)cc1)NCC1CCCO1 (stereo unspecified)	-4	-1.0	-3%	0.0	-1.8	2.1	0.68
CCOC(=O)NC(=O)CSc1ccc2ccccc2n1	-3	-0.6	nt	0.1	0.8	1.9	0.67
CCCc1nnc(SCC(=O)N2CCCC(C)C2)n1CC1CCCO1 (stereo unspecified)	-7	-10	-2%	0.7	0.5	-2.2	0.73
O=C(Nc1ccc(O)cc1)c1ccccc1OCc1ccccc1	-2	-4.7	nt	-1.1	-1.6	3.7	0.7
O=C1c2ccccc2C2(c3cc(C(F)(F)F)cc(C(F)(F)F)c3)NCCN12 (stereo unspecified)	12	-2.1	-3%	0.1	1.8	1.7	0.68
Cc1nc(SCC(=O)c2c[nH]c3ccccc23)n[nH]1	8	-3.1	-3%	-0.4	2.9	2.8	0.67
Cc1cc(Nc2ccc(F)cc2C)n2ncnc2n1	10	-3.2	-2%	0.0	0.8	4.5	0.73
COc1cccc(N(CC(=O)Nc2cccc(F)c2)S(C)(=O)=O)c1	6	-2.9	0%	0.8	-0.5	-3.2	0.76
Cc1cc(=O)n2nc(N3CCCC(C(=O)NCc4ccc(F)cc4)C3)sc2n1 (stereo unspecified)	-8	3.4	nt	1.5	-3.8	2.5	0.67
CCOC(=O)c1c(OCCO)nn(-c2ccccc2)c1N	-1	4.3	-4%	0.0	4.5	2.5	0.67
CC(C)(C)OC(=O)N1CCC[C@H]1c1nnc(SCC(=O)Nc2ccc(Br)cc2)o1	4	0.0	-4%	0.4	8.3	1.2	0.64
COc1cc(C(=O)NC2CCN(CC(=O)NC3CCCCC3C)CC2)cc(OC)c1OC (stereo unspecified)	-2	-1.2	nt	1.7	0.2	-0.4	0.66
NC1=NCc2ccccc21	-1	5.6	7%	0.3	-4.2	0.3	0.65
COc1cc(OC)c(N(C)S(=O)(=O)c2cccc(C(=O)OCc3c(C)noc3C)c2)cc1Cl	7	0.2	-8%	0.5	1.0	-0.9	0.74
Cc1cccc(C)c1OCC(=O)Nn1c(=O)[nH]c2ccccc2c1=O	1	2.9	-1%	1.2	1.2	7.2	0.7
CCC(CC)C(=O)Nc1c(C(=O)N2CCN(c3ccccc3)CC2)oc2ccccc12	-4	-3.5	nt	-2.0	-1.0	-1.0	0.72
O=c1cc(-c2ccccc2)[nH]c2ccc(F)cc12	23	2.9	-4%	0.0	-0.9	1.1	0.64
COCCN(C(=O)COC(=O)c1ccccc1Cc1ccccc1)c1c(N)n(Cc2ccccc2)c(=O)[nH]c1=O	-1	1.8	-21%	2.2	-2.6	-2.5	0.69
c1ccc(-c2nccc(-c3ccc(-n4cnc5ccccc54)cc3)n2)nc1	-6	-1.6	6%	-0.3	-1.2	3.1	0.67
S=C(NCC1CCCO1)N1CCN(Cc2ccccc2)CC1 (stereo unspecified)	-2	0.9	nt	-0.5	1.3	0.5	0.73
CCOC(=O)c1c(C2CC2)csc1NC(C)=O	2	-2.7	-4%	1.1	5.2	5.0	0.68
Cc1ccc(C)c(Nc2nn3c(=O)c4ccc(C(=O)NCc5cccnc5)cc4nc3s2)c1	-2	-3.2	nt	-1.1	0.6	3.4	0.7
CCn1c(CC(=O)Nc2ccc(Cl)cc2)nnc1SCC(=O)N1CCOCC1	2	-0.2	-3%	1.9	-1.6	-2.3	0.73
O=C1C2CC=CCC2C(=O)N1Cc1nnc(-c2ccc(Cl)cc2)o1 (stereo unspecified)	-2	1.9	-10%	0.3	3.8	nt	nt
CCN(Cc1ccccc1)C(=O)CSc1nc(C)cc2c1C(=O)OC2	-11	0.9	1%	0.6	-3.5	0.8	0.69
COc1ccc(C(=O)NCc2ccc(C)cc2)cc1S(=O)(=O)N1CCCc2ccccc21	-4	2.3	27%	0.2	-3.4	2.7	0.72
Cc1c(CC(=O)O)c(=O)oc2c(C)c(OCc3ccc(F)cc3F)ccc12	7	4.1	2%	0.0	-4.1	-244	0.64
CCCCOc1ccc(C2CC(=O)NC2=O)cc1 (stereo unspecified)	-1	-2.3	11%	0.3	2.6	3.9	0.7
COc1cc(C(=O)NNC(=O)Cc2ccc(S(=O)(=O)N3CCOCC3)s2)cc(OC)c1OC	1	-0.6	nt	1.1	-0.4	0.3	0.7
Fc1ccc(-c2nnc3ccc(N4CCCC4)nn23)cc1	-7	-2.0	0%	-0.4	5.6	nt	nt

An excerpt from above in order of their number in UCH37 DUB inh, smallest number first:
smiles | UCH37 DUB inh
O=c1cc(-c2ccccc2)[nH]c2ccc(F)cc12 | 1.1
c1ccc(-c2nccc(-c3ccc(-n4cnc5ccccc54)cc3)n2)nc1 | 3.1
Cc1ccc(C)c(Nc2nn3c(=O)c4ccc(C(=O)NCc5cccnc5)cc4nc3s2)c1 | 3.4

(cont.)
Molecule	B2AR ag	LANA-H2B inh	Vif A3G	A1 inh	HNF4A DNA FP	UCH37 DUB inh	Ecoli growth
COc1cccc(S(=O)(=O)Nc2cccc(C(=O)N3CCCC3)c2)c1	7	5.0	nt	-1.3	-0.6	6.4	0.69
CCSCc1nnc(SCC(=O)Nc2cccc(C(C)=O)c2)n1C	-2	5.3	nt	0.7	-0.4	5.1	0.66
COc1ccc(C(=O)c2ccc(-c3ccc(OC)cc3)nc2)cc1	6	nt	-21%	nt	0.7	1.9	0.65
COc1ccc(NC(=O)c2ccc(CN3CCN(c4ccccc4)CC3)cc2)cc1	5	-2.1	-2%	1.0	2.1	-4.7	0.81
Cc1cc(N/N=C/c2ccccc2F)c2ccccc2n1	-5	-1.8	nt	0.8	2.0	nt	nt
O=C(N/N=C/c1cc(Br)ccc1O)c1cccc(N2CCCC2=O)c1	-3	-11	nt	-0.2	1.9	nt	nt
C=CCn1c(CCNC(=O)c2ccco2)nc2ccccc21	0	7.6	nt	0.2	0.6	1.7	0.64
CCn1nc(CC(=O)Nc2ccc(-n3cnnn3)c(C)c2)c2ccccc2c1=O	-2	-2.8	12%	0.0	0.1	nt	nt
CC(C)OCCCNC(=S)N1CCC(C(=O)c2ccc(Cl)cc2)CC1	-6	-1.4	-2%	0.5	-1.9	4.6	0.66
CC(C)CC(C(=O)O)N1C(=O)C2C3c4ccccc4C(c4ccccc43)[C@@H]2C1=O (stereo partly specified)	-4	-1.8	-8%	-1.3	5.8	1.4	0.67
O=C(O)c1cc2cc(F)ccc2[nH]1	-11	-2.3&-33	?	0.4	2.2	0.8	nt
Fc1cc(F)cc(NC(=S)N2CCC(c3ccccc3)C2)c1 (stereo unspecified)	1	1.0	-16%	0.2	6.7	1.8	0.69
COc1cc(C(=O)NNC(=O)c2ccc(NC(=O)C(C)(C)C)cc2)cc(OC)c1OC	9	-0.6	-1%	-0.5	-1.3	-1.1	0.67
COc1cc(OC)c2c(c1)C(=O)OC2OC (stereo unspecified)	-6	-1.7	5%	-0.1	0.8	6.3	0.64
COc1ccc(CCN(C)CC(O)c2ccccc2)cc1OC (stereo unspecified)	-2	-2.2	17%	2.0	0.9	6.0	0.71
COc1ccc(S(=O)(=O)N2CCCCC2)cc1NC(=O)CSc1nnc(C2CC2)n1C	-3	-0.4	-5%	-0.2	-1.9	1.6	0.7
CC1CC(C)CN(C(=O)CCNC(=O)c2ccccc2Cl)C1 (stereo unspecified)	-5	5.5	nt	-1.3	2.5	-0.1	0.69
CCc1ccc2c(c1)cc(CN(C(=S)Nc1ccccc1)C1CC1)c1nnnn12	14	-0.3	13%	0.3	-2.0	0.8	0.73
CCCN(CCC)C(=O)CC(c1ccccc1)c1cc(Br)ccc1O (stereo unspecified)	26	1.0	?	0.1	-3.2	3.3	0.64
Cc1cccc(N(C)C(=O)C2CCCN2S(=O)(=O)c2cccc3nsnc23)c1 (stereo unspecified)	6	1.6	-1%	0.1	-2.2	5.2	0.73
CC(=O)C1N=NCC1c1ccccc1 (stereo unspecified)	2	nt	-9%	nt	-1.0	1.5	0.69
COCC(C)n1c(SCc2cc(C(=O)OC)c(C)o2)nc2ccccc2c1=O (stereo unspecified)	10	1.6	18%	0.3	-3.8	1.7	0.66
COc1ccccc1NC(=O)Nc1nc(CC(=O)N2CCN(c3ccccc3)CC2)cs1	14	-6.2	-4%	-1.3	4.7	-0.1	0.66
Cc1nc(N2CCN(C(=O)c3cccs3)CC2)c2c3c(sc2n1)CCCC3	3	5.5	nt	0.3	3.2	2.3	0.65
Cc1ccc(NS(=O)(=O)c2cccc3nsnc23)cc1[N+](=O)[O-]	-4	5.4	1%	-0.4	5.2	3.2	0.65

Bioassay records: PubChem BioAssay, several laboratories
